PINK1 expr mod: A Quantitative High throughput Screen to Identify Chemical Modulators of PINK1 Expression | PINK1 immunofluorescence, high-content cytometry, 24 h | AID 624263, 2012 | Potency, µM (highest dose often 76.6 µM), for the others: top-dose activation (PINK1 increase), actives largely listed as activators | actives 0.2% (n = 410,000); active = well fitted activation curve with a large enough effect; inconclusive = small, poorly fitted or top-dose-only effect; inactive = flat fitted curve, though single readings scatter; cell line not stated here;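 further: potency means the concentration at half of the fitted maximal effect; % of control where 0% means no effect; nearly all actives have a fitted effect of over 65% in size; a mitochondrial uncoupler was the plate control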
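Readout is PINK1 immunofluorescence, quantified alongside mitochondrial, cell and nuclear markers by laser-scanning microplate cytometry. Cells from a stable line were exposed to compound titrations (5 concentrations) for 24 hours, with CCCP controls.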
Six1-Eya2 blk: qHTS Assay for Inhibitors of the Six1/Eya2 Interaction; activity change, % (test concentration not listed); AlphaScreen GST-Six1/His-Eya2 binding, biochemical; stronger effect = lower value; control for the full effect not named in the record; AID 651725, 2012; actives 0.56% (n = 360,000); in the data active = activity change below about -65%; inconclusive = about -30% to -65%; inactive = above about -30%; further: on the % scale 0 is the no-effect control and ±100 the full control effect; compound concentration not given in the record
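AlphaScreen luminescence read after one hour at 37 °C in darkness. Pin-transferred compounds met GST-Six1 and His-Eya2 protein (5X stock 250 nM/500 nM) plus glutathione donor and Ni-chelate acceptor beads (5X, 50 ug/mL).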
D2 agonist: Beta-Arrestin HTS for Positive Allosteric Modulators of the Human D2 Dopamine Receptor: Agonists; activation, % (concentration not given with the values); DiscoveRx PathHunter D2 beta-arrestin, luminescence, 90 min; 100% = 57 uM dopamine signal; actives 0.084% (n = 360,000); AID 624465, 2012; D(2) dopamine receptor (Homo sapiens), P14416; in the data active = activation above about 40%; inconclusive = about 15% to 40%; inactive = below about 15%; further: compound concentration not given in the record; the text of the record calls up to 30% inactive
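DiscoveRx PathHunter D2 beta-arrestin cells (2,100/well) attached overnight, then compound-stimulated 90 min at 37 C in HBSS/10 mM HEPES/0.1% Tween-20 buffer; beta-galactosidase complementation read by luminescence after 1 h at ambient temperature. Dopamine 57 uM final (EC100) as control.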
CtBP-E1A blk: qHTS Assay for Inhibitors of the CtBP/E1A Interaction. AlphaScreen GST-E1A/His-CtBP binding, 1536-well; stronger effect = lower value; control for the full effect not named in the record. actives 0.49% (n = 340,000). activity change, % (test concentration not listed). CtBP / adenovirus E1A interaction (AlphaScreen). AID 651724, 2012; in the data active means activity change below about -65%; inconclusive means about -30% to -65%; inactive means above about -30%; further: on the % scale 0 is the no-effect control and ±100 the full control effect; compound concentration not given in the record
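AlphaScreen with 125 nM GST-E1A and 125 nM His-CtBP (5X stocks) in Tris pH 8.0, 300 mM NaCl, BSA, Tween 20, TCEP. Compounds preincubated 2 h at 37 deg C, then glutathione donor/nickel acceptor beads added for 1 h at 37 deg C in dark.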
TRPV1 potentiator: HTS Assay for Compounds that Act as Potentiators of the Vanilloid Receptor 1 | Transient receptor potential cation channel subfamily V member 1 (Homo sapiens), Q8NER1 | TRPV1-expressing cells, Fluo-8 calcium influx, capsaicin EC20 potentiation; host cell line not named in the record; control for the full effect not named in the record | potentiation, % at 8.33 µM | actives 0.02% (n = 320,000) | AID 540277, 2011; active means potentiation above 80%; inconclusive means 30% to 80%; inactive means below 30%; further: 0% is about no effect
Target sequence (Q8NER1 whole entry, looked up): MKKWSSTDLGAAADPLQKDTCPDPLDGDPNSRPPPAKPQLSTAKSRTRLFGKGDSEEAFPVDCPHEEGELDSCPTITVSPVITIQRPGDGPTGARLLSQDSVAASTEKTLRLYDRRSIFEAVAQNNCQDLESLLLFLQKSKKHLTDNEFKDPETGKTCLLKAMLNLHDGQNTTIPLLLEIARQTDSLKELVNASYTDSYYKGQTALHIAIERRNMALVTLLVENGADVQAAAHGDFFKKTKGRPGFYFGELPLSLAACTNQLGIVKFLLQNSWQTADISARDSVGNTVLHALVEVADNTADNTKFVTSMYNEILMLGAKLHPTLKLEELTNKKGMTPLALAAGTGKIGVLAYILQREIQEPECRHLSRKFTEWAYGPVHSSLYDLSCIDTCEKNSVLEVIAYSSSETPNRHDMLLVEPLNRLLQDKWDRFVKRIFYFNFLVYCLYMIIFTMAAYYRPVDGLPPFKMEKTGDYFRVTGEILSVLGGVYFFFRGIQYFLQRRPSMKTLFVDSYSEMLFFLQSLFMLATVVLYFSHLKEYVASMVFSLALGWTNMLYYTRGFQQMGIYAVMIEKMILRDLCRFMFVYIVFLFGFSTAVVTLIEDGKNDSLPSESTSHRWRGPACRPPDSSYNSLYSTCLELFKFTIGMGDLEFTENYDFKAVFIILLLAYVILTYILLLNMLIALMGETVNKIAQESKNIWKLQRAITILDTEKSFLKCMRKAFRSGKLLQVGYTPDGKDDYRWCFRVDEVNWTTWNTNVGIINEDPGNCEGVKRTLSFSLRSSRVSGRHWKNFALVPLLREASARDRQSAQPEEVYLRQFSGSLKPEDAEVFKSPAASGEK
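TRPV1-expressing cells were cultured overnight at 35.5C and loaded with Fluo-8 calcium dye for 40 to 90 min at room temperature. After a 10 s baseline, compound was added and calcium influx was read kinetically for 3 min (ex 480/em 520 nm).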
Sfp PPTase inh: qHTS Assay for Inhibitors of Bacillus subtilis Sfp phosphopantetheinyl transferase (PPTase); 4'-phosphopantetheinyl transferase ffp (Bacillus subtilis), Q9F4F7; Potency, µM, without a hit: max response, negative = inhibition, usual class: inhibitors; AID 1490, 2009; actives 3.5% (n = 310,000); Biochemical Sfp PPTase activity, qHTS; active means well fitted inhibition curve with a large enough effect; inconclusive means small, poorly fitted or top-dose-only effect, or another doubt; inactive means no such curve, though single readings can be large or run the other way;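 further: the enzyme is Sfp with the accession as filed and its product quenches rhodamine fluorescence; potency means the concentration at half of the fitted maximal effect; 0% = enzyme reaction without inhibitor and -100% = no enzyme wells; top concentration of the series not given in the record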
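With Hepes-Na pH 7.6 buffer containing 10 mM MgCl2, Sfp (15 nM) modified BHQ-2-YbbR (12.5 uM) using rhodamine-CoA (5 uM). Two reads 30 minutes apart at 525/598 nm yielded each well's rate.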
D2 potentiator: Beta-Arrestin HTS for Positive Allosteric Modulators of the Human D2 Dopamine Receptor: Potentiators; AID 624464, 2012; DiscoveRx D2 beta-arrestin cells, luminescence, 90 min; 100% = 57 uM dopamine signal; potentiation, % (concentration not given with the values); D(2) dopamine receptor (Homo sapiens), P14416; actives 0.23% (n = 360,000); active = potentiation of 50% or more; inconclusive = 30% to 50%; inactive = 30% or less;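 further: compound concentration not given in the record; tested on top of an EC20 dose of dopamine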
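D2 cells co-treated with compound plus 50 nM dopamine (EC20) for 90 min at 37 deg C to detect potentiation. Beta-arrestin recruitment was read as enzyme-fragment luminescence after 1 h at ambient temperature. Full response was set by 57 uM dopamine.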
Active calls of the source: *; ? = inconclusive; / = not tested or not shown; & = joins results of further samples; [ ] = another dose, or the depositor's remark.

Values run as follows: PINK1 expr mod, Six1-Eya2 blk, D2 agonist, CtBP-E1A blk, TRPV1 potentiator, Sfp PPTase inh, D2 potentiator
1	CCCCOc1ccc(C(C)NC(=O)CCS(=O)(=O)Cc2ccccc2F)cc1 (stereo not given)
 : 8.4%, -6, -1.1, -3, 1, 14%, -19
2	CCc1c(C)sc(NC(=S)NC(C)C2CCCO2)c1C(=O)OC (stereo not given)
 : 10%, -9, 0.3, 1, -2, 3%, 0
3	O=C(NCC12CC3CC(CC(C3)C1)C2)c1nc2ncccn2n1
 : -0.8%, 2, -1.2, 7, -1, 7%, 10
4	O=C(CSc1nc2ccccc2s1)NC1CCCC1
 : 1.8%, -9, 12, 9, -4, -7%, -4
5	Cc1ccc(NC(=O)Nc2cccnc2)cc1NC(=O)Nc1cccnc1
 : -1.3%, -4, 0.1, /, -3, -12%, 21
6	COCCNC(=O)Cn1c(=O)n(CCCCCC(=O)Nc2ccccc2)c(=O)c2sccc21
 : -0.8%&-0.6%, 6, -4.1, -1, 13, 10%, -4
7	COc1ccc(N=Cc2c(O)n(-c3cccc(C)n3)c(=O)c3ccccc23)cc1
 : 2.7%, -4, -1.7, -7, -4, -6%, -2
8	O=S(=O)(c1ccc(Oc2ccc(-c3nnco3)cc2)nc1)N1CCC(Cc2ccccc2)CC1
 : 8.9%, -2, -2.2, 7, -3, 0%, -19
9	CC(C)CN(CC(C)C)S(=O)(=O)N1CCC(C(=O)NC2CCCCCCC2)CC1
 : 3.1%[38.3 µM], 7, -2.0, 5, 5, ?, -10
10	CCOC(=O)N1CCN(C(=O)CS(=O)Cc2nc(-c3ccc(C)cc3)oc2C)CC1 (stereo not given)
 : -0.2%, 1, -3.0, 4, 9, -2%, -5
11	O=C(COC(=O)C1(c2ccccc2)CC1)NNC(=O)c1ccccc1
 : -3.5%, 7, -0.5, 6, 6, /, -17
12	COc1ccccc1N1CCN(CC(O)COCCOc2ccc(Br)cc2)CC1 (stereo not given)
 : 0.8%, -7, -1.5, -2, 3, 4%, -33
13	COc1ccccc1C/C(N)=N/OC(=O)c1ccc2c(c1)OCO2
 : -1.1%, 6, 8.8, /, 2, 14%, 15
14	Cc1ccc(C)c(OCCCC(=O)Nc2nccs2)c1
 : 0.0%, 0, 1.6, -2, -17, -5%, 11
15	COCCn1nnnc1C(c1cccs1)N1CCN(c2cc(C)ccc2C)CC1 (stereo not given)
 : -4.4%[38.3 µM], -7, -1.3, -5, -33, -15%, -17

Next part, starting with the last three of the part before.
Values run as follows: PINK1 expr mod, Six1-Eya2 blk, D2 agonist, CtBP-E1A blk, TRPV1 potentiator, Sfp PPTase inh, D2 potentiator
13	COc1ccccc1C/C(N)=N/OC(=O)c1ccc2c(c1)OCO2
 : -1.1%, 6, 8.8, /, 2, 14%, 15
14	Cc1ccc(C)c(OCCCC(=O)Nc2nccs2)c1
 : 0.0%, 0, 1.6, -2, -17, -5%, 11
15	COCCn1nnnc1C(c1cccs1)N1CCN(c2cc(C)ccc2C)CC1 (stereo not given)
 : -4.4%[38.3 µM], -7, -1.3, -5, -33, -15%, -17
16	O=C(NCc1ccccc1)C1CCCN(S(=O)(=O)c2cccs2)C1 (stereo not given)
 : ?, 3, -3.6, -14, 10, 8%, -10
17	Cc1c(C(=O)Nc2ccccn2)oc2ccc(Br)cc12
 : -1.6%, -2, -1.1, 10, -17, /, 4
18	COc1ccc(S(=O)(=O)N2CCCCC2)cc1NC(=O)c1cc(C)on1
 : -1.1%, -2, 1.4, 6, -12, 7%, -5
19	CCCCCNCc1cccn1C
 : 2.0%[38.3 µM], -12, -1.9, 9, 5, 10%, -10
20	O=C(CN1CCCCCC1)Nc1ccc(Oc2ccccc2)cc1
 : 7.0%, -6, 0.6, 6, -17, -9%, -1
21	CCc1ccc(C2CC(=O)Nc3c2c(=O)nc2c(C)cccn32)cc1 (stereo not given)
 : -0.5%&0.6%, -5, -1.2, 2, 3, 19%, 1
22	COC(=O)c1sccc1NC(=O)c1c(C)noc1C
 : -3.1%[38.3 µM], 0, -3.0, 10, -1, 13%, -9
23	CCCNC(=O)Cn1nc(-c2ccccc2OC)ccc1=O
 : 0.4%, -7, -0.6, -2, /, /, -5
24	O=C(Nc1ccccc1)Nc1ccc(Oc2cccnc2)nc1
 : 2.3%, -3, -1.1, -2, 4, 0%, 2
25	CCCc1ccc2oc(C(=O)N3CCC(COC)C3)c(C)c2c1 (stereo not given)
 : 5.5%, 21, -2.3, 12, -9, -12%, -8
26	CC(=O)OCC1OC(n2c(S)c(C#N)c(-c3ccccc3)c(C#N)c2=O)C(OC(C)=O)C(OC(C)=O)C1OC(C)=O (stereo not given)
 : 0.0%, -5, -3.3, 8, /, /, -11
27	Cc1nnc(SCC(=O)Nc2ccc3c(c2)OCCO3)s1
 : -1.8%[38.3 µM], 3, 1.0, 7, 16, 6%, -3
28	Cc1ccc2cc(CCNC(=O)c3ccco3)c(=O)[nH]c2c1
 : 0.3%[38.3 µM], 2, 1.2, 0, 23, 3%, 1
29	Cc1ccc(OCc2cc(C(=O)N(C)Cc3nccn3C)no2)cc1C
 : 1.3%, -2, -0.8, -6, 20, -4%, -9
30	CCc1ccc(C(O)c2ncc(-c3ccccc3OC)[nH]2)cc1 (stereo not given)
 : 3.0%, -9, -5.2, -10, /, /, -21
31	CCOC(=O)/C(=C/c1cn(C)c2ccccc12)NC(=O)c1ccccc1
 : 4.8%, 3, 1.8, 1, ?, -8%, -1
32	COc1cccc(CN2CC(C(=O)N3CCN(C(C)C)CC3)CCC2=O)c1 (stereo not given)
 : 0.8%, 11, -0.7, 0, -4, 0%, -1
33	O=S(=O)(Nc1cccc(-c2cn3ccsc3n2)c1)c1ccc(F)cc1
 : 0.1%, -27, -3.8, -25, 9, 3%, 15
34	CC/C(=C\c1oc2cc3ccccc3cc2[n+]1CC)Nc1ccccc1
 : ?, 3, -1.8, 4, 2, -38%, -17
35	Cc1cc(N2CCOCC2)nc2ccc(NC(=O)C3CCC(C)CC3)cc12 (stereo not given)
 : 3.9%, 25, -2.4, 0, 5, -13%, 4
36	N#CCCN1CCN(CCC#N)C1=S
 : -1.5%, 3, 0.7, 0, /, /, -4
37	Cc1ccc2c(n1)sc1c(-c3ccc(Br)cc3)c(C#N)c(N)nc12
 : 1.7%, 15, -2.4, 8, -5, ?, 4
38	COc1cc(C(C)=O)ccc1COc1ccc(C(=O)OC(C)C(=O)NC(N)=O)cc1OC (stereo not given)
 : 2.8%, -18, 2.5, -5, 1, -17%, -15
39	CCOC(=O)CCCNC(=O)CN1CCC(c2nc3ccccc3s2)CC1
 : 1.9%, 3, -4.0, 0, -1, 4%, -3
40	Nc1nonc1NC(=O)CSc1ncccc1C(=O)O
 : /, 1, -0.8, 13, -4, ?, 3
41	CC(C)[N+](C)(C)CC(O)CN(c1ccccc1)c1ccccc1 (stereo not given)
 : 0.6%, -3, -11, 1, 3, 10%, -11
42	Cc1ccnc(SC2CC(=O)N(c3ccccc3)C2=O)n1 (stereo not given)
 : 1.4%, 5, -1.1, -5, /, /, -10
43	CN(CC(=O)Nc1cccc(S(=O)(=O)N(C)c2ccccc2)c1)Cc1cccs1
 : 0.5%, -8, 0.9, 1, /, /, -11
44	COC(=O)c1sc(NC(=O)COc2ccc(OC)cc2)nc1C
 : 18%, 3, -1.2, 10, /, /, 7
45	Cn1c(=O)c2c(nc(CN3CCCCC3)n2CCCc2ccccc2)n(C)c1=O
 : -0.6%, 15, -1.6, 0, /, /, 9
46	Cc1c(NC(=S)NC(=O)c2cccc(Br)c2)c(=O)n(-c2ccccc2)n1C
 : -1.1%, 3, 0.5, -11, 6, -9%, -3
47	Cc1ccc2nc(N(CCCN(C)C)C(=O)c3ccc(S(=O)(=O)N4CCc5ccccc5C4)cc3)sc2c1
 : -1.9%, ?, 5.1, ?, 10, 50µM*, -15
48	COc1ccc(N2CCN(C(=S)Nc3ccc(C)cc3)CC2)cc1
 : -0.1%, -7, -2.8, -1, 9, 10%, -7
49	CCOc1ccccc1CNC(=O)c1c([N+](=O)[O-])c(C)nn1C
 : 5.2%, 7, -5.8, 9, 4, 10%, -1
50	N/C(=N\OC(=O)/C=C/c1ccccc1)c1ccc(Cl)cc1
 : 3.9%, 9, 4.6, 3, -8, 5%, 13
51	CC(C)Oc1cccc(C(=O)Nc2ccc(N3CCN(S(C)(=O)=O)CC3)cc2)c1
 : 2.1%, 0, -3.8, 1, 7, 14%, 4
52	COc1cccc(N2C(=O)CN(Cc3ccc(OC)c(OC)c3)C2=S)c1
 : 1.0%, 0, 5.1, -19, -33, -3%, -4
53	Cc1ccc(NC(=O)c2ccc3c(c2)C(=O)N(c2ccccc2C)C3=O)nc1
 : 1.5%, 5, -2.5, -5, -7, /, 4
54	O=C(OC(C(=O)NCc1cccs1)c1ccc(F)cc1)c1ccco1 (stereo not given)
 : -0.9%, 3, -1.1, -1, 6, -2%, -6
55	COc1ccc(C(=O)NNC(=O)COc2ccc(Cl)cc2C)cc1S(=O)(=O)N1CCOCC1
 : 23%, -9, -1.6, 5, 2, /, -12
56	COc1ccccc1C(=O)Nc1ccc2oc(-c3ccc(F)cc3)nc2c1
 : -6.0%[38.3 µM], 4, -1.1, 11, -15, 50µM*, -3
57	COc1ccccc1OCc1nnc(SCCN2CCOCC2)o1
 : 2.8%[38.3 µM], 26, -1.5, 33, 9, ?, 5

One compound at a time (already shown):
Shown for O=C(COC(=O)C1(c2ccccc2)CC1)NNC(=O)c1ccccc1 : PINK1 expr mod = -3.5%; Six1-Eya2 blk = 7; D2 agonist = -0.5; CtBP-E1A blk = 6; TRPV1 potentiator = 6; Sfp PPTase inh = /; D2 potentiator = -17
Shown for COc1cccc(N2C(=O)CN(Cc3ccc(OC)c(OC)c3)C2=S)c1 : PINK1 expr mod = 1.0%; Six1-Eya2 blk = 0; D2 agonist = 5.1; CtBP-E1A blk = -19; TRPV1 potentiator = -33; Sfp PPTase inh = -3%; D2 potentiator = -4

Compound activity (PubChem BioAssay)
